High-throughput results (PubChem)
VDR inh = Inhibitors of the vitamin D receptor (VDR): qHTS. Vitamin D3 receptor (Homo sapiens), P11473. VDR-SRC2-3 peptide fluorescence polarization, 2 h. Potency, µM, without a hit: max response, negative = inhibition, most hits filed as inhibitors. 400,000 tested, 0.93% active; active = well fitted inhibition curve with a large enough effect; inconclusive = small, poorly fitted or top-dose-only effect, or another doubt; inactive = no such curve, though single readings can be large or run the other way; also: series mostly up to about 120 µM
Target sequence (P11473 whole entry, looked up): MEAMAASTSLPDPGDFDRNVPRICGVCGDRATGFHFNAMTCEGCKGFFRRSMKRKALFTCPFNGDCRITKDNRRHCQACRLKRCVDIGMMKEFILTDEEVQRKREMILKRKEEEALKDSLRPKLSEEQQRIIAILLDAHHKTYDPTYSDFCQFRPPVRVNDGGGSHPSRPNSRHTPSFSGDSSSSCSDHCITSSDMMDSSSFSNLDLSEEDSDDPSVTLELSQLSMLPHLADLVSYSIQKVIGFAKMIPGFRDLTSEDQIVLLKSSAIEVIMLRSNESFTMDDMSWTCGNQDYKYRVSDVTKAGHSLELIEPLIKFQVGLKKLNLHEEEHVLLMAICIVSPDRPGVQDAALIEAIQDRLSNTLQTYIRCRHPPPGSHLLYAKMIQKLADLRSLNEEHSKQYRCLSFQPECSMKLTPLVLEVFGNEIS
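The screen uses fluorescence polarization to detect compounds that interfere with recruitment of the SRC2-3 coactivator peptide to VDR; plates are read after 2 h at room temperature.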
* marks the source's active call; other numbers are inactive results; u = inconclusive; & = joins results of further samples; [ ] = remark or other dose. % is scaled to controls: 0 for no effect and ±100 for the full control effect; potency is read from the fitted curve at half-maximal effect. Only part of the results is shown. The share of hits here may be higher or lower than overall.

Start of the data: the first 6 compounds (preview)
SMILES	VDR inh
CC1=NNC(=O)C1CC(=O)N/N=C/C=C/c1ccccc1 (stereo not drawn)	-22%
COc1cc(NC(=O)C(NS(=O)(=O)c2ccc3c(c2)CCCC(=O)N3)C(C)C)cc(OC)c1 (stereo not drawn)	-2%
COc1ccc(NS(=O)(=O)c2cccc(C(=O)O)c2)cc1	14%
CCOc1ccc(NC(=O)CSc2n[nH]c(=O)n2-c2ccccc2)cc1	14%
COc1ccc(NC(C)=O)cc1NC(=O)CN1CCN(CC(=O)Nc2ccc(Cl)cc2)CC1	-3%
NS(=O)(=O)c1ccc(CNC(=O)c2ccc(S(=O)(=O)NCc3ccco3)cc2)cc1	-7%

This part in full (from the top)
SMILES	VDR inh
CC1=NNC(=O)C1CC(=O)N/N=C/C=C/c1ccccc1 (stereo not drawn)	-22%
COc1cc(NC(=O)C(NS(=O)(=O)c2ccc3c(c2)CCCC(=O)N3)C(C)C)cc(OC)c1 (stereo not drawn)	-2%
COc1ccc(NS(=O)(=O)c2cccc(C(=O)O)c2)cc1	14%
CCOc1ccc(NC(=O)CSc2n[nH]c(=O)n2-c2ccccc2)cc1	14%
COc1ccc(NC(C)=O)cc1NC(=O)CN1CCN(CC(=O)Nc2ccc(Cl)cc2)CC1	-3%
NS(=O)(=O)c1ccc(CNC(=O)c2ccc(S(=O)(=O)NCc3ccco3)cc2)cc1	-7%
CC(=O)N1c2ccccc2C(=O)C1N1CCN(c2ccc(Cl)cc2)CC1 (stereo not drawn)	8%
CCOc1ccc(N2C(=O)CC(N(Cc3ccco3)C(=O)CC)C2=O)cc1 (stereo not drawn)	-8%
COc1cc(C(=O)Nc2ccccc2-c2nnn(CC(N)=O)n2)cc(OC)c1OC	14%
CCc1[nH]nc2c1C(c1cccnc1)C(C#N)=C(N)O2 (stereo not drawn)	-5%
CCCN(C(=O)Cn1cnc2sc(C)c(S(=O)(=O)N3CCN(c4ncccn4)CC3)c2c1=O)c1cccc(C)c1	9%
NC(=O)/C=C/C(=O)Nc1ccc(Cl)cc1	-13%
COc1cccc(NC(=O)c2ccc(NCCCN3CCC(C)CC3)c([N+](=O)[O-])c2)c1	-6%
CC(=O)c1c(N)n(C)c(=O)n(C)c1=O	16%
COc1cc(NC(=O)CN2CCCN(S(=O)(=O)c3ccc(F)cc3)CC2)cc(OC)c1	u
Cc1occc1-c1nnc(SCC(=O)N2CCOCC2)n1Cc1ccco1	-3%
COc1ccccc1OCc1nc(Cc2ccc(Cl)cc2)no1	0%
O=C(Cn1cc(C(F)(F)F)ccc1=O)N1CCCc2ccccc21	-5%
c1ccc(-c2nc3ccccn3c2NCc2ccc3c(c2)OCO3)cc1	-6%
COc1ccccc1OCc1nnc(SCC(=O)Nc2ccc(C)cc2)n1C	-6%
CC(C)C(=O)Nc1ccc2c3c(cccc13)CC2	-21%
Cc1cc2oc(C(=O)Nc3ccc(S(N)(=O)=O)cc3)c(C)c2cc1Cl	5%
Cc1ccc2oc(-c3cccc(N)c3)nc2c1	-24%
CCOC(=O)c1nnn(-c2nonc2N)c1-c1ccc(F)cc1	-17%
COc1ccc(S(=O)(=O)NCCc2csc3nc(-c4ccccc4)nn23)cc1OC	10%

Next section; the last three above are carried over.
SMILES	VDR inh
Cc1ccc2oc(-c3cccc(N)c3)nc2c1	-24%
CCOC(=O)c1nnn(-c2nonc2N)c1-c1ccc(F)cc1	-17%
COc1ccc(S(=O)(=O)NCCc2csc3nc(-c4ccccc4)nn23)cc1OC	10%
COc1cc(C(=O)NC(=S)Nc2ccc(Cl)c(C(=O)O)c2)cc(OC)c1OC	-9%
CCCSc1nsc(NC(=O)C(c2ccccc2)c2ccccc2)n1	-9%
CC(=O)[C@@H]1[C@@H](C(=O)c2ccccc2)[C@]2(C(=O)Nc3ccccc32)[C@H]2C=Cc3cc(F)ccc3N12	-14%
CCNS(=O)(=O)c1ccc(NC(=O)c2ccccc2)cc1	1%
CC[n+]1c(/C=C2/C=C(C)CC(C)(C)C2)sc2ccc(OC)cc21	u
CS(=O)(=O)N(CC(=O)Nc1ccccc1Sc1ccccc1)c1ccc(F)cc1	3%
O=C(Cn1c(=O)n(CCc2ccccc2)c(=O)c2c3c(sc21)CCCC3)Nc1ccc(F)c(F)c1	-1%
O=C(Nc1ccc(OC(F)F)c(Cl)c1)Nc1ccc2c(c1)OCO2	-25%
CCOC(=O)c1sc2ncn(CC(=O)Nc3cc(C)on3)c(=O)c2c1C	49%[activator]
COc1cc(/C=N/NC(=O)C(=O)N2CCCCCC2)ccc1O	-18%
O=C(NCCc1c[nH]c2ccccc12)C(=O)NCC(c1ccco1)N1CCN(c2ccccc2)CC1 (stereo not drawn)	-9%
Cc1cc2c(nn1)CCc1c-2no[n+]1[O-]	8%
Cc1cccc(OCC(=O)NC2CCCc3ccccc32)c1C (stereo not drawn)	-11%
CCC(=O)NCCc1nc2cc(NC(=O)c3ccc(Cl)cc3)ccc2n1C	-6%
CC1(C)CC(=O)C2=C(C1)Nc1nc(SCCN3CCOCC3)[nH]c(=O)c1C2c1cccs1 (stereo not drawn)	-14%
CCOc1ccccc1NC(=O)c1ccc2c(c1)C(=O)N(CC)C2=O	-8%
CCc1sc(N(C(=O)Cc2ccccc2)c2ccc(F)cc2)nc1-c1ccccc1	4%
O=C(CCn1ccc2cc(S(=O)(=O)N3CCCC3)ccc21)NCc1ccccc1Cl	-2%
CC(=O)c1sc(NC(=O)c2ccccc2F)nc1-c1ccccc1	-13%
COc1ccc2[nH]c3c(c2c1)CCN1C(=O)C(CC(=O)NCc2ccc(OC)c(OC)c2)C[C@H](C(=O)N2CCCCC2)[C@@]31CCc1ccccc1 (stereo partly drawn)	u
CCOc1ccc(NC(=O)Cc2coc3ccc(C)cc23)cc1	1%
Cc1cc(NS(=O)(=O)c2ccc(NC(=S)NC(=O)c3ccccc3)cc2)no1	-11%
CC(Sc1nnc(C2CC2)n1-c1ccccc1)C(=O)N1CCCC1 (stereo not drawn)	16%
Cc1cc2oc(=O)cc(CN3CCCCC3C)c2c(C)c1Cl (stereo not drawn)	0%
Cc1oc2ccc(O)c(CN3CCCCC3)c2c1C(=O)Nc1cccc(C(F)(F)F)c1	-8%
SMILES	VDR inh
COc1ccc(S(=O)(=O)n2cnc3cc(C)c(C)cc32)cc1C	18%
CC(C)c1ccc(C2CC(=O)N3CN(C)CSC3=C2C#N)cc1 (stereo not drawn)	u
CC(C)CC(=O)Nc1nc2c(c(=O)[nH]1)CCCC2	-2%
COc1cc([N+](=O)[O-])cc(/C=N/NC(=O)Cn2nccc2C)c1O	u
Cc1c(NC(=O)CSc2nnc3c4ccccc4n(CCc4ccccc4)c3n2)c(=O)n(-c2ccccc2)n1C	14%
C=CCOc1ccc(Cl)cc1CNC1CCCC1	-29%
COC(=O)CSc1nc(SC)nc2c1sc1nc(-c3ccco3)c3c(c12)CC(C)(C)OC3	-5%
O=C(/C=C\c1ccc2c(c1)OCO2)NC1CC(=O)N(c2ccc(F)cc2)C1 (stereo not drawn)	14%
O=C(N/N=C/c1ccccn1)c1ccc(NC(=O)c2cccc([N+](=O)[O-])c2)cc1	6%
CC1CCN(CCCNC(=O)C2CCC(=O)N2C2CCCC2)CC1 (stereo not drawn)	3%
CCOC(=O)N1CCN(C(=O)C2CCN(S(=O)(=O)N(CC)CC)CC2)CC1	9%
COC(=O)CCC(=O)N1CCCC(N2CCN(c3ccc(OC)cc3)CC2)C1 (stereo not drawn)	8%
CC(=O)N1CCN(C(=O)C2(NC(=O)Nc3ccc(C)cc3)CCCCC2)CC1	10%
Cc1cc(C(F)(F)F)n2ncc(-c3ccc(F)cc3)c2n1	-5%
CCOC(=O)N1CCC(c2cc(=O)n3[nH]cc(C(=O)OC)c3n2)CC1	-21%
COC(=O)c1nnn(CC(=O)Nc2cccc(OC)c2)c1C(=O)OC	-12%
COc1ccccc1S(=O)(=O)Cc1ccc(C(=O)NCc2ccc3c(c2)OCO3)o1	4%
CNC(=O)c1cc(C(=O)c2ccccc2Br)c[nH]1	-12%
O=C(CSc1nnc(-c2ccc(O)cc2)o1)N1CCOCC1	11%
CC/C(=N\NS(C)(=O)=O)c1ccccc1	-4%
CS(=O)(=O)c1ccc(C(=O)NNC(=O)c2cccs2)cc1	-17%
O=C(Nc1ccc(Br)cc1F)N1CCC(CN2CCc3ccccc3C2)CC1	-2%
CCc1cccc(NC(=O)C2CCCN(S(=O)(=O)c3cccs3)C2)c1 (stereo not drawn)	u
COc1ccc(NC(=S)Nc2ccccc2)cn1	-10%
c1ccc(Cc2nn3c(Cn4nnc5ccccc54)nnc3s2)cc1	89µM*
SMILES	VDR inh
COc1cc(CN2CCN(CCCc3ccccc3)C(CCO)C2)cc(OC)c1O (stereo not drawn)	-24%
Cc1ccnc(N2CCC(C(=O)Nc3cccc(C(F)(F)F)c3)CC2)n1	-7%
O=C(OCC(=O)N1CCN(C(=O)c2ccco2)CC1)c1cc(-c2ccccc2)nc2ccccc12	11%
CC(C)N(Cc1ccccc1)C(=O)Cn1ncc2c([nH]c3ccccc32)c1=O	14%
CCn1ncc(S(=O)(=O)Nc2cc(Cl)ccc2C)c1C	10%
COc1cccc(Cn2cccc(NC(=O)NCc3ccccc3)c2=O)c1	-7%
Cc1cnc(C(=O)OCC(=O)Nc2ccc(OCc3ccccc3)cc2)cn1	-16%
Cc1nn(C)c(C)c1S(=O)(=O)N(CC(=O)NC1CCCCCC1)c1ccc(C(C)C)cc1	-21%
O=C(C1=C(O)C(=O)N(c2nccs2)C1c1ccccc1)c1cc2ccccc2o1 (stereo not drawn)	-9%
CCS(=O)(=O)N1CC(=O)N(c2ccc(C)c(C)c2)C(C)(C(=O)NC2CCCCC2)C1 (stereo not drawn)	16%
Cc1ccccc1-c1nc(CS(=O)CC(=O)NC(C)CCc2ccccc2)c(C)o1 (stereo not drawn)	-13%
COc1ccc2c(c1)CCC1=C2NC(=S)NC1c1ccc(N(C)C)cc1 (stereo not drawn)	-7%
O=C(NCc1ccccn1)c1cccc(S(=O)(=O)N2CCc3ccccc32)c1	3%
Cc1nc(NS(=O)(=O)c2ccccc2)sc1NC(=O)OC(C)C	7%
CCc1nnc(NC(=O)CCN2C(=O)/C(=C/c3cc(OC)c(OC)c(OC)c3)SC2=S)s1	10%
Cc1ccc(NC(=O)c2cc(S(=O)(=O)NCCC3=CCCCC3)ccc2F)cc1	-4%
COc1ccc([C@@]23Oc4cc(OC)cc(OC)c4[C@]2(O)[C@H](O)[C@H](C(=O)N(C)C)[C@H]3c2ccccc2)cc1	11%
COC(C)(C)[C@@H](O)COc1c2ccoc2cc2oc(=O)ccc12	0%
O=C(c1ccccc1)c1cnc2ccc(Cl)cc2c1N1CCOCC1	-1%
Cc1ccc(C(=O)Nc2ccccc2)cc1S(=O)(=O)Nc1ccc(Cl)cn1	43%[activator]
Cc1ccc(-n2ncc(C(=O)N3CCN(C(=O)c4ccco4)CC3)c2-n2cccc2)cc1	-6%
Cc1ccc(NC(=O)c2ccc([N+](=O)[O-])cc2)cc1S(=O)(=O)N(C)C	-10%
COc1ccc(C(CNC(=O)c2ccco2)N2CCOCC2)cc1 (stereo not drawn)	-10%
COc1ccc([N+](=O)[O-])cc1NC(=O)COC(=O)Cn1cnc2ccccc2c1=O	-13%
COC(=O)c1cc(OC)c(OC)cc1NC(=O)CSCc1c(C)noc1C	-15%

Structural class: those above with a CF3 group (4)
SMILES	VDR inh
O=C(Cn1cc(C(F)(F)F)ccc1=O)N1CCCc2ccccc21	-5%
Cc1oc2ccc(O)c(CN3CCCCC3)c2c1C(=O)Nc1cccc(C(F)(F)F)c1	-8%
Cc1cc(C(F)(F)F)n2ncc(-c3ccc(F)cc3)c2n1	-5%
Cc1ccnc(N2CCC(C(=O)Nc3cccc(C(F)(F)F)c3)CC2)n1	-7%

(more compounds)
SMILES	VDR inh
COCCN(C(=O)c1csnn1)C(C(=O)NC1CCCCC1)c1ccccc1 (stereo not drawn)	-7%
COc1cccc(/C=N/NC(=O)CCc2c(C)n[nH]c2C)c1	5%
CCCCN1CC(COCc2ccccc2)Oc2cccc(Oc3ccc(OC)cc3)c2S1(=O)=O (stereo not drawn)	3%
COc1ccc(-c2oc(NC(=O)CSc3ncn[nH]3)c(C#N)c2-c2ccc(OC)cc2)cc1	-8%
COc1cc(CNC(=O)c2ccc3oc(C(C)C)nc3c2)cc(OC)c1	3%
Cc1cccc(C(=O)OCC(=O)N2CC(C)CC(C)C2)c1C (stereo not drawn)	0%
COc1ccc(NC(=O)COc2ccc(C(=O)c3ccc(F)cc3)cc2)cc1S(N)(=O)=O	u
CCN(CC)CCn1c2c(c(SCC(=O)Nc3nc4ccc(C)cc4s3)nc1=O)CCC2	-9%
CC(CN1CCCC1)C(=O)NN (stereo not drawn)	15%
Cc1ccc(CC(=O)Nc2ccccc2N2CCOCC2)cc1C	-2%
Cc1ccc(NC(=O)NCCN2CCCCC2)cc1Cl	-7%
O=C1NC(=S)S/C1=C/c1ccc(OC(=O)c2ccco2)cc1	-6%
O=C(CN1CCN(S(=O)(=O)c2cccc(F)c2)CC1)Nc1ccnn1C1CCCC1	-8%
Cc1ccc(C2=NN(C(=O)CCl)C(c3ccco3)C2)o1 (stereo not drawn)	21%
CC(=O)c1ccc(NC(=O)CSc2nnc(NC(=O)c3ccco3)s2)cc1	1%
Cc1cccc(-c2nc(CCNC(=O)COc3ccccc3)cs2)c1	-2%
CCOC(=O)c1nnc(-c2ccccc2)nc1NCc1ccccc1	3%
CCc1c(C)nc2cc(-c3cc(OC)cc(OC)c3)nn2c1N1CCN(CCN2CCOCC2)CC1	9%
COc1ccc(Cc2c(Cl)ncnc2Cl)cc1	0%
CC1(C)CC2CC(C)(CN2C(=O)COC(=O)c2cncc(Br)c2)C1 (stereo not drawn)	2%
Cc1cccc(/C=C/c2onc(C)c2S(=O)(=O)N2CCC(C(=O)N3CCC(C)CC3)CC2)c1	-14%&9%
Cc1ccc2oc(-c3ccc(Cl)c(NC(=O)Cc4ccccc4)c3)nc2c1	2%
CCc1ccc(-c2nc(CN3CCC(C(=O)NCc4ccco4)CC3)c(C)o2)cc1	-5%
